High-throughput results (PubChem BioAssay)
KCNQ2 inh – KCNQ2 channel blockers in CHO-K1 cells – cell-based, FluxOR thallium flux, B-score, primary screen (AID 2156); O88943; 20 min; stronger effect = lower value; only compounds with negative scores are shown here; some inactives read as strong as hits; B-score at 10 µM; hit rate 1.1% among 310,000;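 active = fluorescence ratio B-score at most minus 3 library SDs, with starting brightness B-score within 2 library SDs, cut at about -5.5 in these data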
Target sequence (O88943 whole entry, looked up): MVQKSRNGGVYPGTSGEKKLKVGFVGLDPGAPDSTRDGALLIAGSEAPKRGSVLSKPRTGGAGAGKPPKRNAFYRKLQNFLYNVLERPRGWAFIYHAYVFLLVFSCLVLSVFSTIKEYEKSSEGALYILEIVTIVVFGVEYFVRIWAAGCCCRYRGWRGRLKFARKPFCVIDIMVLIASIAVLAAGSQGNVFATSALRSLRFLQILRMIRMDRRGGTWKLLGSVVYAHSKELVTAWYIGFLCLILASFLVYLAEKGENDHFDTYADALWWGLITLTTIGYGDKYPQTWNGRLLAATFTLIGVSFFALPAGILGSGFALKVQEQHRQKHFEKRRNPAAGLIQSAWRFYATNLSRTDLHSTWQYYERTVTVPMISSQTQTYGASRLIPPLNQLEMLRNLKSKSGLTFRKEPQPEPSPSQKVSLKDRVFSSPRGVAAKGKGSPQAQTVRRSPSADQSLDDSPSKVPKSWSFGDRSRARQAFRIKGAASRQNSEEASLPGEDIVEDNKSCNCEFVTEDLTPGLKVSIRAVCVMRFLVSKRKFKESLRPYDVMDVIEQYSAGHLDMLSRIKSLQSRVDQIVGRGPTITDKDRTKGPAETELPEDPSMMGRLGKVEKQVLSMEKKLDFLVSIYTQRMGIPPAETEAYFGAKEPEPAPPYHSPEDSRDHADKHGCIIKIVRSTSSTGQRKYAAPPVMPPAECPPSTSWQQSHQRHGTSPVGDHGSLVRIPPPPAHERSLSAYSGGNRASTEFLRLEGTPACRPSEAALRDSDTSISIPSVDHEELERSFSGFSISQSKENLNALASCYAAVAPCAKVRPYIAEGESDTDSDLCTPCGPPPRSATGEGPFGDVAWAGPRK
KCNQ2 inh baseline – recorded beside KCNQ2 inh, whose call it bears; B-score; measured here: initial fluorescence intensity artifact check;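 brightness before thallium and not channel activity; 0 = typical well and far values either way flag optical interference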
The depositor's hits bear a star; i = inactive.

SMILES	KCNQ2 inh	KCNQ2 inh baseline
CC1(C)CC(=O)C(C=Nc2ccccc2Sc2ccccc2)=C(O)C1	i	-1.1
O=C(Nc1ccc2c(c1)OCO2)N1CCN(c2ccccc2Cl)CC1	i	-0.48
COc1ccc(Cl)cc1C(=O)n1cnc2ccccc21	i	0.99
O=C(O)c1cccc(S(=O)(=O)Nc2ccccc2N2CCOCC2)c1	i	0.04
CC(=O)N1CCN(C(=O)c2cccc(S(=O)(=O)NCc3ccccc3)c2)CC1	i	1.2
CC(NCc1ccc(F)cc1)C(=O)Nc1cc(S(=O)(=O)N2CCCCC2)ccc1Cl (stereo not given)	i	-1.2
Cc1cccc(OCC2=NS(=O)(=O)c3ccccc3N2)c1	i	-0.01
Cc1nn(CCC(=O)NCc2ccc(N(C)C)cc2)c(=O)c2nn(-c3ccccc3)c(C)c12	i	-2.3
COc1cccc(CNCc2ccccc2OC)c1	i	0.69
CC(C)(C)NC(=O)C(c1ccncc1)N(C(=O)Cn1nnc(-c2ccc(F)cc2)n1)c1ccccc1 (stereo not given)	i	-0.37
CNC(=S)N/N=C/c1cn(Cc2ccc(C)cc2)c2ccccc12	i	-0.91
CCc1ccc(NC(=O)N(Cc2cccnc2)Cc2ccco2)cc1	i	-0.08
Nc1nnc(SCC(=O)N2CCN(c3ccccc3)CC2)s1	i	-1.5
CCCCCC1CCC(c2ccc(/C(N)=N/O)cc2)CC1 (stereo not given)	i	2.2
Cc1ccc(S(=O)(=O)N2CCN(C)CC2)cc1C	i	-0.21
Fc1ccc(-c2csc(NC3=NCCC3)n2)cc1	i	0.72
CN(Cc1cccnc1)C(=O)CC1C(=O)NCCN1CC(c1ccccc1)c1ccccc1 (stereo not given)	i	-0.4
O=C(N=C1SC2CS(=O)(=O)CC2N1c1ccc(Cl)cc1)C1CCCO1 (stereo not given)	i	0.67
CCn1c(CCNC(=O)c2cccs2)nnc1SCC(=O)Nc1cccc(Cl)c1	i	0.42
CNC(=O)C1CC(=O)N(CCc2ccc(C)cc2)C1 (stereo not given)	i	-1.7
COc1ccc(CCNc2cc(C)nc(N)n2)cc1OC	i	-0.16
Clc1ccc(CNc2nc(CN3CCOCC3)nc3scc(-c4ccccc4)c23)cc1	i	-1.4
C/C(=C\c1ccccc1)CN1CCN(C)CC1	i	1.9
COCCn1c(CN2CCN(c3cccc(Cl)c3)CC2)nc2c1c(=O)n(C)c(=O)n2C	i	-0.05
O=C(/C=C/c1ccccc1F)c1ccoc1	i	1.2
(listing goes on)
SMILES	KCNQ2 inh	KCNQ2 inh baseline
COc1ccc(OC)c(CNC(=O)CCc2cn(C)c3ccccc23)c1	i	-0.2
COC(=O)c1[nH]c2ccc(Br)cc2c1NC(=O)CN1CCCc2ccccc21	i	0.42
CCCCCOc1ccc(C(C)(O)C(CN2CCOCC2)c2ccccc2)cc1 (stereo not given)	i	-2
O=S(=O)(NCc1cc(-c2ccccc2Cl)no1)c1ccc(Cl)cc1	i	-1.4
O=C(CSc1cn(CCNC(=O)c2c(F)cccc2F)c2ccccc12)NCC1CCCO1 (stereo not given)	i	-0.68
Cc1cc(NCc2ccccn2)n2nc(C)c(-c3ccc(Cl)cc3)c2n1	i	-0.22
O=C(NCCS(=O)(=O)c1ccc(Br)cc1)c1ccc(Cl)cc1	i	-0.03
Cc1ccc(NC2CCCN(C(=O)c3cc(C(C)C)[nH]n3)C2)cc1C (stereo not given)	i	-0.06
Cc1ccc(/C(N)=N/OC(=O)CCc2ccccc2)cc1	i	-0.98
CCN(CC)CCCNC(=O)c1cn(CC(C)C)c(=O)c2c1c1ccccc1n2C	i	-1.2
O=c1[nH]ncc(N/N=C\c2ccc(O)cc2O)c1Cl	i	-1.5
Cc1nonc1NCn1nnc2ccccc21	i	1.9
CC(C)(C)NC(=O)CSCc1ccc(Br)cc1	i	-0.33
Cc1nn(CC#N)c(=O)n1-c1cccc(F)c1	i	-1.3
COCCNC(=O)CN1CCCCCC1	i	0.16
Cc1cc(C(=O)OCC(=O)NCc2ccco2)c(C)o1	i	0.05
COc1ccc(N2CCN(c3nc(Cl)nc(N4CCOCC4)n3)CC2)cc1	i	1.4
COc1cccc(C(=O)N/N=C/c2ccc(OC3CSC3)cc2)c1	i	0.05
CC1CCN(c2nc3c(cc2C#N)COC(C)(C)C3)CC1	i	-1.7
COC(=O)COc1c(Cl)cc(Cl)c2ccc(C)nc12	i	0.37
CCOC(=O)N1CCN(C(=O)c2ccc(Oc3ccc([N+](=O)[O-])cc3)cc2)CC1	i	-0.13
CCC(COC)NCc1cn(-c2ccc(F)cc2F)nc1-c1ccccc1C (stereo not given)	i	-1.1
COc1cc(Cl)ccc1OCc1cc(C(=O)NCC(C)c2ccccc2)no1 (stereo not given)	i	0.88
FC(F)(F)c1cccc(N2CCC(N=CN3CCCCCC3)=N2)c1	i	-0.05
CCOC(=O)c1cnc2ccc(C)cc2c1Sc1ccc(F)cc1	-5.5*	0.1*
Continued:
SMILES	KCNQ2 inh	KCNQ2 inh baseline
NC(CO)C(=O)NNCc1ccc(O)c(O)c1O (stereo not given)	i	1.2
Cc1ccccc1C(=O)NNC(=O)Cc1ccccc1	i	-0.4
CC(=O)c1ccc(NC(=O)Nc2ccc([N+](=O)[O-])cc2C)cc1	i	1.1
CC(=O)c1cn(-c2ccc(Cl)cc2)c(=O)n(Cc2ccc(F)cc2)c1=O	i	-0.68
CCCCS(=O)(=O)Nc1ccc(Cc2ccncc2)cc1	i	0.36
COc1ccc(NC(=S)NCCc2ccc(S(N)(=O)=O)cc2)c(OC)c1	i	-1.2
COc1ccc(C(CCN2CCCC(C)C2)c2c(OC)cc(OC)c3c(-c4ccccc4)cc(=O)oc23)cc1 (stereo not given)	-6*	-0.11*
COC(=O)c1cn(NC(=O)c2cc([N+](=O)[O-])ccc2F)c(=O)c2ccccc12	i	0.74
O=C(NC1CCCCC1)C1CC(=O)N(c2cccc([N+](=O)[O-])c2)C1 (stereo not given)	i	0.62
O=Cc1ccccc1OCCN1CCCC1=O	i	0.02
CC(=O)Nc1ccc(C(=O)/C=C/c2ccc[nH]2)cc1	i	-1.3
O=C(Nc1cccc(C(=O)O)c1)/C(=C\c1ccc2c(c1)OCO2)NC(=O)c1ccc(Br)o1	i	0.52
Cc1cc(C(=O)Nc2ccccc2N2CCOCC2)c(C)o1	i	0.49
N#CC1=C(N)N(c2ncn[nH]2)C2=C(C(=O)CCC2)C1c1ccccc1 (stereo not given)	i	0.84
Cc1cc(NC(=O)CN(C)CCOc2ccccc2)ccc1Br	i	-0.7
CCN(CC)c1ccc(NC(=O)/C=C/c2cc(Br)ccc2OC)cc1	i	0.21
C#CCOC(=O)CCCC(=O)Nc1ccccc1OC	i	-0.71
CCOc1ccc(C(C(=O)NC2CCCCC2)N(C(=O)c2ccco2)c2ccc(-n3cnnn3)c(C)c2)cc1 (stereo not given)	i	1.7
Cc1ccc(C(=O)CC(C(=O)O)P(=O)(c2ccccc2)c2ccccc2)cc1 (stereo not given)	i	2.5
Cc1ccccc1-c1nc2ccccc2c(=O)n1/N=C/c1ccc([N+](=O)[O-])cc1	i	0.77
CCCNC(=O)c1csc(Nc2cccc3ccccc23)n1	i	-1.4
C/C(CC(=O)Nc1ccc(Cl)cc1)=N\NC(=O)C(=O)N1CCCCC1	i	-0.15
O=C(CSc1ccc(-c2cccnc2)nn1)N1CCCC1	i	0.06
Cc1ccc(S(=O)(=O)N(CC(=O)Nc2ccc(C(N)=O)cc2)C(=O)N2CCN(C)CC2)cc1	i	-1.6
CC(=O)Nc1cccc(C(=O)N2CCN(Cc3ccccc3)CC2)c1	i	-0.36

A different layout for some results above:
The line under a structure holds: KCNQ2 inh, KCNQ2 inh baseline
O=Cc1ccccc1OCCN1CCCC1=O
  i, 0.02
CC(=O)Nc1ccc(C(=O)/C=C/c2ccc[nH]2)cc1
  i, -1.3
O=C(Nc1cccc(C(=O)O)c1)/C(=C\c1ccc2c(c1)OCO2)NC(=O)c1ccc(Br)o1
  i, 0.52
Cc1cc(C(=O)Nc2ccccc2N2CCOCC2)c(C)o1
  i, 0.49
N#CC1=C(N)N(c2ncn[nH]2)C2=C(C(=O)CCC2)C1c1ccccc1 (stereo not given)
  i, 0.84
Cc1cc(NC(=O)CN(C)CCOc2ccccc2)ccc1Br
  i, -0.7
CCN(CC)c1ccc(NC(=O)/C=C/c2cc(Br)ccc2OC)cc1
  i, 0.21
C#CCOC(=O)CCCC(=O)Nc1ccccc1OC
  i, -0.71
CCOc1ccc(C(C(=O)NC2CCCCC2)N(C(=O)c2ccco2)c2ccc(-n3cnnn3)c(C)c2)cc1 (stereo not given)
  i, 1.7
Cc1ccc(C(=O)CC(C(=O)O)P(=O)(c2ccccc2)c2ccccc2)cc1 (stereo not given)
  i, 2.5
Cc1ccccc1-c1nc2ccccc2c(=O)n1/N=C/c1ccc([N+](=O)[O-])cc1
  i, 0.77
CCCNC(=O)c1csc(Nc2cccc3ccccc23)n1
  i, -1.4
C/C(CC(=O)Nc1ccc(Cl)cc1)=N\NC(=O)C(=O)N1CCCCC1
  i, -0.15
O=C(CSc1ccc(-c2cccnc2)nn1)N1CCCC1
  i, 0.06
Cc1ccc(S(=O)(=O)N(CC(=O)Nc2ccc(C(N)=O)cc2)C(=O)N2CCN(C)CC2)cc1
  i, -1.6
CC(=O)Nc1cccc(C(=O)N2CCN(Cc3ccccc3)CC2)c1
  i, -0.36

Remaining list, next part:
SMILES	KCNQ2 inh	KCNQ2 inh baseline
O=C(Cc1ccccc1)NC(NNc1ccccc1)(C(F)(F)F)C(F)(F)F	i	0.01
CC(C)OC(=O)CCC(=O)Nc1nc2ccccc2s1	i	0.07
O=C(CN1C(=O)C2C3C=CC(C3)C2C1=O)OCC(=O)c1ccc(Cl)c([N+](=O)[O-])c1 (stereo not given)	i	0.84
Cc1ccc2oc(=O)c(/C=C(\O)c3ccccc3)nc2c1	i	2
O=C1c2ccccc2C(=O)N1CC1=CCS(=O)(=O)C1	i	2
Cc1ccc2nc(-c3ccc(S(=O)(=O)N4CCCCC4)cc3)cn2c1	i	0.83
Cc1cc(C)n(-c2cc(N3CCOCC3)nc(-c3ccccc3)n2)n1	i	0.88
CCNC(=O)c1c(O)c2cccc3c2n(c1=O)CC3	i	0.19
COc1ccccc1CNC(=O)c1ccc2nc3[nH]c4ccccc4c3nc2c1	i	0.76
O=C(O)CCc1nn2c3ccccc3n(CC(=O)c3cccs3)c2nc1=O	i	-0.13
COc1cccc(S(=O)(=O)Nc2ccc3sc(C)nc3c2)c1	i	0.72
Cc1cccc(N2CC(O)=C(c3nc4ccccc4n3C)C2=N)c1	i	-0.56
Cn1nnc(NC(=S)NC(=O)c2cccc3c(Cl)cccc23)n1	i	2.4
CNC(=O)c1cc(S(=O)(=O)N2CC(C)OC(C)C2)ccc1N1CCOCC1 (stereo not given)	i	-0.36
CCCC(=O)n1nc(-c2cccnc2)nc1NCc1ccc(OC)cc1	i	-0.6
CC(C)(C)c1nc2ccccc2c2nnc(SCC(=O)NCc3ccco3)n12	-6.5*	-0.55*
COc1ccc([C@H]2[C@H](C(=O)C(C)(C)C)N3N=Cc4ccccc4C3[C@]23N=C(c2ccccc2)OC3=O)cc1 (stereo not given in full)	-9.5*	-2.5*
CC(C)NC(=O)CCCc1ccccc1	i	0.84
O=C(Nc1ncccc1O)c1cccc(S(=O)(=O)N2CCCC2)c1	i	1
Cc1ccc(/C=C(\C#N)C(=O)Nc2cccc(C)n2)cc1	i	-1.4
CCOC(=O)C(NC(=O)c1cccc(Cl)c1)(Nc1sc2c(c1C(N)=O)CCC2)C(F)(F)F (stereo not given)	i	4.4
Cc1ccc(C(=O)NCC(=O)NCC(=O)OCC(=O)c2ccc(F)cc2)cc1	i	-0.44
COc1ccc(-c2[nH]nc(-c3ccccc3)c2-c2nc3ccccc3[nH]2)cc1	-7.3*	-0.38*
Cc1ccc(C)c(OCCN2C(=O)NC3(CCc4ccccc4C3)C2=O)c1 (stereo not given)	i	0.74
CCc1nnc(NC(=O)Cc2ccc(Br)cc2)s1	i	2.9
Next results:
SMILES	KCNQ2 inh	KCNQ2 inh baseline
Cc1ccc(NC(=O)C2CCN(S(=O)(=O)c3ccc4c(c3)CC(C)N4C(=O)C3CCC3)CC2)nc1 (stereo not given)	i	0.08
Cc1ccc(C(=O)N2CCN(c3ncccn3)CC2)cc1NC1=NC2CS(=O)(=O)CC2S1 (stereo not given)	i	1.3
CC1(c2ccccc2)O[C@@H]2C[C@H]3[C@@H]4CCC5=CC(=O)C=C[C@]5(C)[C@@]4(F)[C@@H](O)C[C@]3(C)[C@]2(C(=O)CO)O1 (stereo not given in full)	i	2.3
CCOC(=O)CNC(=O)CSc1nnc(SCC(=O)NCC(=O)OCC)s1	i	0.52
CCS(=O)(=O)c1c([N+](=O)[O-])ncn1C	i	-1.2
Cc1ccc(C)c(N(CC(=O)NC2CCCC2)C(=O)CNC(=O)c2cccs2)c1	i	-0.01
O=C(O)c1cc(-c2ccccc2Cl)n(-c2ccc(F)cc2)n1	i	-0.71
CCOC(=O)C(NC(=O)c1ccccc1Cl)(Nc1ccc(C)c(C)c1)C(F)(F)F (stereo not given)	i	-0.01
CCCCC(=O)N1C/C=C\C(c2ccc(OC)cc2)N(Cc2ccc(F)cc2)C(=O)C1 (stereo not given)	i	0.01
Cc1ccc(C(=O)N/C(=C\c2sccc2C)C(=O)NCc2ccco2)cc1	i	-1.2
COc1cc(/C=C2/S/C(=N/S(=O)(=O)Cc3ccccc3)NC2=O)c([N+](=O)[O-])cc1OC	i	0.3
Cc1cc(C)c2oc(-c3ccc(C)c(NC(=S)NC(=O)/C=C/c4ccco4)c3)nc2c1	i	1.7
Cn1cccc1/C=C1\SC(=S)N(NC(=O)c2ccc(F)cc2)C1=O	i	1.4
O=C(Cn1nnc2ccccc2c1=O)Nc1ccc2c(c1)CCC2	i	-0.05
COc1cc(N2CCCC2)ccc1[N+](=O)[O-]	i	0.47
CCN(CC)CC(=O)NC12CC3CC(CC(C3)C1)C2	i	0.46
COc1ccc(/C=C/C(=O)Oc2ccc(C)c(C)c2)cc1OC	i	-0.67
Cc1c(C(=O)C(=O)N2c3ccc(F)cc3CCC2C)c2ccccc2n1C (stereo not given)	i	-0.44
CN(C)C(CNC(=O)c1ccc(NC(=O)CC#N)cc1)c1ccccc1 (stereo not given)	i	0.58
Cc1c(C(=O)N(C)CCCCN2CCOCC2)oc2c(F)cccc12	i	-0.33

A portion of the library; rates above refer to the full screens.
